# Mtb hypoxia rep: PubChem AID 1159583; fluorescence inhibition, % (no concentration beside the values); 300,000 compounds, 0.1% hits; M. tuberculosis hypoxia-regulated fluorescent reporter, fluorescence;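 active = 35 to 45% if threefold the growth effect, above 45% if 1.5-fold the growth effect; inactive = the rest, general growth blockers included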;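 also: wells of about 50 µL received 100 nL stock; 0% = vehicle wells and 100% = reference inhibitor wells; whole bacteria with a GFP reporter of the hypoxia response; strong numbers were not always called active; many hits fall short of the cut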
# Autofluor counter: compound fluorescence in toxin protease inhibitor counterscreen; compound autofluorescence counterscreen, microsphere flow cytometry; stronger effect = higher value; AID 624483; 360,000 compounds, 3.1% hits; fluorescence intensity (concentration not given with the values);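 active = at least 3 SD above the mean of all compounds, about 16000 in these data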;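 also: 100 nL of 1 mM stock went into each well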
# BJeLR lethal: MLPCN primary cell-based screen for lethality selective to Ras in HRASV12 cells; inhibition, % (test concentration not listed); 300,000 compounds, 0.17% hits; BJeLR (HRASV12) viability, CellTiter-Glo ATP luminescence, 48 h; reference of the scale not given here;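 active = replicate mean above 50%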;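 also: 50 nL library stock added to about 25 µL; numbers are from one replicate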
# PrP 5UTR inh: inhibition of PrP 5' UTR reporter expression; 340,000 compounds, 0.35% hits; inhibition, % (no concentration beside the values); cell-based PrP 5' UTR mRNA reporter, plate reader; AID 488862, 2010;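 active = every replicate at 50% or more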;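 also: 0 = median of the neutral control wells; tested in H4 reporter cells; numbers are from one replicate; inactives centre near -14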
# Sa ugtP lethal: growth inhibition of ugtP-null S. aureus, primary screen, RN4220 ugtP deletion, OD600; 16 h; some inactives read as strong as hits; growth inhibition, % (test concentration not listed); 330,000 compounds, 0.54% hits; AID 1259309, 2017;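 active = z-score under -3 and OD600 up to 0.15 on both plates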;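 also: plate controls were untreated wells for no effect and antibiotic for full effect; wells of about 80 µL received 100 nL stock; the first replicate is given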
# Sa RN4220 lethal: growth inhibition of S. aureus RN4220, primary screen, OD600 | 16 h | inhibition, % (concentration not given with the values) | 330,000 compounds, 0.33% hits | AID 1259311, 2017;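 active = z-score of -3 or lower and OD600 up to 0.18 on both plates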;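 also: plate controls were untreated cells for no effect and reference antibiotic for full effect; stock transfer was 100 nL into about 80 µL; one replicate is shown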
# Mtb hypoxia rep growth: second read-out of Mtb hypoxia rep, no call of its own (marks repeat the call); growth inhibition, %; measured here: M. tuberculosis growth (absorbance);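 0% = vehicle and 100% = reference antibiotic; read after six days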
# An asterisk follows results filed as active; x = not tested or not shown.
SMILES,Mtb hypoxia rep,Mtb hypoxia rep growth,Autofluor counter,BJeLR lethal,PrP 5UTR inh,Sa ugtP lethal,Sa RN4220 lethal
O=C(NC1=NCCS1)c1sc2ccccc2c1Cl,x,x,4303,-9,-89,-5,-3.6
NC(=O)CC(NC(=O)c1ccccc1)c1ccc(N2CCN(c3ccccc3)CC2)c([N+](=O)[O-])c1 (stereo not drawn),10,4,3452,10,-23,16,17
CN1CCN(S(=O)(=O)c2cccc(C(=O)N(c3ccccn3)C3CCCCC3)c2)CC1,6,6,3314,9,-7,-3,-9.2
C/C(CC(=O)NCc1ccco1)=N\NC(=O)Cc1ccccc1,x,x,3664,-2,-19,x,x
COC(=O)c1ccc(C(C2C(=O)CC(C)(C)CC2=O)C2C(=O)CC(C)(C)CC2=O)cc1,14,-1,3453,-5,-12,6,4.1
C=CCN(CC(=O)c1sc(C(=O)OCC)nc1C)c1cccc(Br)c1,19,11,3318,-15,-23,7,9.4
O=C(NCCCN1CCc2ccccc2C1)Nc1ccc(Br)cc1,11,6,3810,-7,-12,-16,-4.8
Cc1ccc(C)c2[nH]c(=O)c(CN(CCN3CCCC3)C(=O)Nc3ccc(F)cc3)cc12,4,9,8761,-7,-16,-1,-9.3
Cc1ccc(S(=O)(=O)c2nnn3c2nc(NCCCN2CCCC2=O)c2ccccc23)cc1C,17,1,6153,1,-8,-1,5.1
NC(=O)c1ccc(NC(=O)Cn2c(=O)n(-c3ccccc3)c(=O)c3oc4ccccc4c32)cc1,3,9,4432,-15,-27,7,0.0
COc1ccc(C(=O)NC(C)c2nc3ccccc3[nH]2)cc1OC (stereo not drawn),1,-3,12854,-3,-15,2,2.7
CC1=CSC(=C(C#N)C(=O)N2CCCCC2)N1c1ccccc1,10,-3,x,x,x,3,7.4
COc1cc(OC)cc(C(=O)NCCCn2ccnc2)c1,-1,2,3466,8,-23,12,3.0
COc1ccc(C(=O)Nc2nnc(S(=O)(=O)N3CCC(C)CC3)s2)cc1OC,-1,0,x,10,-24,7,8.7
CCOC(=O)N1CCN(CC(=O)c2ccc(O)c(C)c2O)CC1,9,1,5344,-1,-12,3,-1.3

# The last two compounds of the part above are carried over, then new ones follow:
SMILES,Mtb hypoxia rep,Mtb hypoxia rep growth,Autofluor counter,BJeLR lethal,PrP 5UTR inh,Sa ugtP lethal,Sa RN4220 lethal
COc1ccc(C(=O)Nc2nnc(S(=O)(=O)N3CCC(C)CC3)s2)cc1OC,-1,0,x,10,-24,7,8.7
CCOC(=O)N1CCN(CC(=O)c2ccc(O)c(C)c2O)CC1,9,1,5344,-1,-12,3,-1.3
CCOc1ccc(-c2[nH]ncc2-c2ccc(OC)c(OC)c2)c(O)c1,4,7,11413,x,11,-1,2.1
CC(C)Oc1ccc(C(=O)N2CCCC2C(=O)O)cc1 (stereo not drawn),5,9,10302,-5,-13,4,4.2
Cc1ccc(C=NN2CCOCC2)s1,15,12,x,x,x,5,2.8
CCOC(=O)CSc1ccc(C(=O)N2CCN(C)CC2)cc1[N+](=O)[O-],8,4,3861,8,-13,2,7.1
CCN(CC)C(=O)c1sc(N)c(C(=O)OC(C)C)c1C,7,-4,3754,8,-3,6,0.0
C1CCC(c2nn3c(-c4n[nH]c5c4CCC5)nnc3s2)CC1,x,x,2016,1,1,6,0.3
S=c1nc(SCc2ccccc2)[nH]c2ccccc12,11,16,3543,7,-21,-12,-3.3
COc1ccc(OC(=O)Nc2ccccc2)cc1,5,12,10265,-9,-68,7,10
COc1ccc(NC2=NC(=S)N(c3ccc(C)cc3)C23CCCCC3)cc1,5,1,3209,-5,-6,-2,7.6
CCCNC(=O)c1ccc(N2CCC3(CC2)CC(c2cccc(Br)c2)=NO3)c([N+](=O)[O-])c1,12,14,3702,15,0,14,-4.4
CC(=O)Nc1ccc(S(=O)(=O)C(C#N)c2nc3ccccc3nc2NCCN2CCOCC2)cc1 (stereo not drawn),2,1,3133,0,-17,5,4.5
O=C(NN=Cc1ccc([N+](=O)[O-])o1)c1ccc(NS(=O)(=O)c2cccs2)cc1,x,x,x,x,x,12,1.7
CC(=O)Oc1ccc(N(C(C)=O)S(=O)(=O)c2cccs2)c2ccccc12,-5,-4,11445,1,-19,-19,3.1
C=C1CCC(OC(C)=O)C2(C)CCC3C(C)C(=O)OC3C12O (stereo not drawn),4,-8,3214,2,3,5,1.8
CC(=O)NC(=S)Nc1sc2c(c1C(N)=O)CCC(C)C2 (stereo not drawn),1,7,2461,17,-36,-6,-4.6

# 16 entries from above, sorted by SMILES length, descending:
SMILES,Mtb hypoxia rep,Mtb hypoxia rep growth,Autofluor counter,BJeLR lethal,PrP 5UTR inh,Sa ugtP lethal,Sa RN4220 lethal
CCCNC(=O)c1ccc(N2CCC3(CC2)CC(c2cccc(Br)c2)=NO3)c([N+](=O)[O-])c1,12,14,3702,15,0,14,-4.4
CC(=O)Nc1ccc(S(=O)(=O)C(C#N)c2nc3ccccc3nc2NCCN2CCOCC2)cc1 (stereo not drawn),2,1,3133,0,-17,5,4.5
COc1ccc(C(=O)Nc2nnc(S(=O)(=O)N3CCC(C)CC3)s2)cc1OC,-1,0,x,10,-24,7,8.7
CCOC(=O)CSc1ccc(C(=O)N2CCN(C)CC2)cc1[N+](=O)[O-],8,4,3861,8,-13,2,7.1
COc1ccc(NC2=NC(=S)N(c3ccc(C)cc3)C23CCCCC3)cc1,5,1,3209,-5,-6,-2,7.6
CCOc1ccc(-c2[nH]ncc2-c2ccc(OC)c(OC)c2)c(O)c1,4,7,11413,x,11,-1,2.1
C=C1CCC(OC(C)=O)C2(C)CCC3C(C)C(=O)OC3C12O (stereo not drawn),4,-8,3214,2,3,5,1.8
C1CCC(c2nn3c(-c4n[nH]c5c4CCC5)nnc3s2)CC1,x,x,2016,1,1,6,0.3
CC1=CSC(=C(C#N)C(=O)N2CCCCC2)N1c1ccccc1,10,-3,x,x,x,3,7.4
CC(=O)NC(=S)Nc1sc2c(c1C(N)=O)CCC(C)C2 (stereo not drawn),1,7,2461,17,-36,-6,-4.6
CCN(CC)C(=O)c1sc(N)c(C(=O)OC(C)C)c1C,7,-4,3754,8,-3,6,0.0
CC(C)Oc1ccc(C(=O)N2CCCC2C(=O)O)cc1 (stereo not drawn),5,9,10302,-5,-13,4,4.2
COc1cc(OC)cc(C(=O)NCCCn2ccnc2)c1,-1,2,3466,8,-23,12,3.0
S=c1nc(SCc2ccccc2)[nH]c2ccccc12,11,16,3543,7,-21,-12,-3.3
COc1ccc(OC(=O)Nc2ccccc2)cc1,5,12,10265,-9,-68,7,10
Cc1ccc(C=NN2CCOCC2)s1,15,12,x,x,x,5,2.8

# More structures
SMILES,Mtb hypoxia rep,Mtb hypoxia rep growth,Autofluor counter,BJeLR lethal,PrP 5UTR inh,Sa ugtP lethal,Sa RN4220 lethal
CCOc1cc(-c2nc3ccccn3c2NCC2CCCO2)ccc1O (stereo not drawn),7,6,22229*,-9,-14,7,2.4
Cc1nn(CCOc2cccc(Br)c2)c(C)c1[N+](=O)[O-],17,6,4040,-2,-24,4,6.5
COc1ccc(-n2c(SCC(=O)Nc3ccccc3)nc3c(c2=O)SCC3)cc1,1,6,5757,11,-17,2,3.4
Cc1ccc(-c2nn(-c3cccc(F)c3)cc2CNCCc2ccncc2)o1,1,-12,8638,2,-23,7,0.6
COCCNC(=O)c1cc2oc3ccccc3c2n1C,9,4,10349,-13,-37,5,2.3
COc1ccc(S(=O)(=O)N2CCCOC2CNC(=O)C(=O)NCc2ccncc2)cc1 (stereo not drawn),14,0,6773,-9,-15,-1,3.3
Cc1cccc2c(C(=O)Nn3cnnc3)cc(-c3ccccc3Cl)nc12,4,4,3178,-17,-17,9,5.0
Cc1cc(C)nc(NS(=O)(=O)c2ccc(NC(=O)C3CC(=O)N(c4ccccc4)C3)cc2)n1 (stereo not drawn),2,15,8082,-1,-23,-6,6.3
O=C(Nc1ccccc1SCC1CSc2nc3ccccc3c(=O)n21)c1ccccc1Cl (stereo not drawn),x,x,2242,-1,-13,3,1.5
CSc1ncc(Cl)c(C(=O)Nc2ccc(S(=O)(=O)Nc3nccc(C)n3)cc2)n1,22,20,4914,1,-12,4,-5.8
COc1ccc(C(=O)NN=c2oc3ccccc3cc2C(N)=O)cc1,22,12,x,x,x,6,9.8
COc1cc2c(C(=O)N3CCOCC3)c(CSc3ccccc3)n(C)c2cc1Br,0,1,2022,6,-7,-16,-4.7
Cc1ccc(C)c2c1cc(C)c1nnc(SCC(=O)NCc3ccc4c(c3)OCO4)n12,3,3,2538,-13,-8,10,-10
CC1CC(NC(=O)c2cc3c(=O)n4ccccc4nc3n2C)CC(C)(C)C1 (stereo not drawn),-3,5,5751,12,-9,5,18
CCOC(=O)c1ccc(NC(=S)N2CCN(Cc3ccccc3)CC2)cc1,8,5,1944,-17,-19,-4,6.5
C#CCOCCOCCOCCNc1nc(N2CCOCC2)nc(N2CCN(C(=O)[C@H]([C@@H](C)CC)n3cc([C@@H](N)Cc4ccc(O)cc4)nn3)CC2)n1,x,x,3844,2,-12,x,x
CSc1cccc(N2C(=O)C3CCCN3C2=S)c1 (stereo not drawn),x,x,3858,-5,-16,x,x
CS(=O)(=O)c1ccc(-c2nnc(NC(=O)c3ccc(S(=O)(=O)N4CCCC4)cc3)o2)cc1,7,6,4901,-1,-36,14,8.0
CCOC(=O)C1CCN(CC(=O)Nc2c(C(=O)OC)[nH]c3ccc(Cl)cc23)CC1,-8,4,2592,2,-17,-19,1.8
COc1cccc(-c2ccc(=O)n(CC(=O)NCCN3CCOCC3)n2)c1,-4,-8,25197*,8,-19,2,-4.0
NS(=O)(=O)c1ccc(CCNC(=O)c2cc([N+](=O)[O-])ccc2N2CCCCC2)cc1,x,x,3440,-6,-8,x,x
COc1ncnc2c1cnn2-c1ccccc1,3,7,9895,-11,-16,4,13
CCOc1ccc(-n2c(SCC(=O)Nc3ccc(Br)cc3)nc3n[nH]c(C)c3c2=N)cc1,7,4,2622,8,-6,-1,7.1
O=C(Nc1ccc(F)cc1)c1cc(-c2ccccc2)no1,16,5,10648,0,-24,4,-0.8
OC(c1ccccc1)C(NCCNCc1ccccc1)c1ccccc1 (stereo not drawn),15,7,3722,x,-14,-1,4.6
Cc1cccc2cc(COC(=O)c3cccs3)c(=O)[nH]c12,2,-1,7586,-6,-14,11,4.1
C=CCc1ccc(OCCn2cncn2)c(OC)c1,4,4,4054,-4,-16,10,5.1
CCCc1nnc(SCC(=O)Nc2ccc(OCC)cc2)n1N,4,7,2797,-10,-10,-10,-12
Cc1c(S(=O)(=O)N2CCN(c3cccc(Cl)c3)CC2)c(=O)n(C)c(=O)n1C,17,5,6692,-5,-10,9,0.5
Cn1c(CNC(=O)CCNC(=O)c2ccccc2F)cc(=O)n(C)c1=O,5,5,5236,0,-5,3,0.5
Cc1ccccc1OCC(=O)Nc1ccc(S(=O)(=O)N2CCOCC2)cc1,6,0,5434,-11,-16,4,4.7
O=C(CCc1nnc(COc2ccccc2)o1)NCCc1cccs1,2,0,2462,2,-34,19,0.7
Cc1cc(C)nc(NC(=O)c2ccc(COc3ccccc3Cl)cc2)c1,7,6,2174,-10,-25,13,10
Cc1nnc(NC2=NCCC2)o1,x,x,4632,10,-20,-2,-0.2
COc1ccc(CCNC(=O)COC(=O)c2cccs2)cc1OC,4,7,5541,-3,-16,7,4.0
CC(CC(=O)Nc1ccc2ccccc2c1)=NNC(=O)c1ccc(O)c(O)c1,21,1,x,x,x,-12,9.2
Cc1cc(C(=O)CSc2nc(N)cc(=O)[nH]2)c(C)n1CCc1ccc(F)cc1,-5,6,2571,-2,3,-7,8.3
COC(=O)c1c(C)[nH]c(C(=O)OCc2ccc(F)cc2)c1C,x,x,5596,12,-76,-5,1.8
O=C(NCCc1ccccc1)C(=O)Nc1ccc2c(c1)OCCO2,11,0,4387,-3,-29,11,7.1
COc1cccc(NC(=O)C(c2ccccc2)N2CCCC2)c1 (stereo not drawn),2,3,3162,-17,-26,1,4.6
O=C(NCCCN1CCCC1=O)c1cccc(N2CCCC2=O)c1,x,x,2982,-6,-21,6,-1.0
COc1ccccc1NC(=O)C(=O)NNS(=O)(=O)c1ccc2ccccc2c1,5,-5,4179,-18,-20,9,-2.4
Cc1cccc2c1CC(C)(C)NC2=C(C#N)C#N,9,0,10385,0,-1,2,4.5
O=C(NCc1ccccc1)C(c1ccc(F)cc1)N(C(=O)c1csnn1)C1CC1 (stereo not drawn),2,0,5766,-5,-45,-2,3.3
COc1ccccc1N=C(C)C1=C(O)CSC1=O,x,x,3566,6,-12,5,-0.4

# High-throughput results as filed in PubChem.
